BasE inh: BasE siderophore biosynthesis inhibition | purified BasE, fluorescence polarization binding displacement | 84,000 tested, 0.1% active | inhibition, % (test concentration not listed);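 active means both replicates above 25% with normal brightness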;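 further: 0% = negative plate control signal and 100% = positive plate control signal; stock transfer was 100 nL into about 30 µL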
LANA-nucl inh: LANA-nucleosome interaction inhibition; AID 720717; z-score (concentration not given with the values); FITC-LANA1-23 / chicken nucleosome fluorescence polarization; stronger effect = lower value; 51,000 tested, 0.3% active;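 active means both repeat wells score below -2 in polarization z-score versus plate sample wells, excluding overly bright wells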;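 further: 100 nL library stock added to about 30 µL; numbers are from one replicate; some results filed as inactive read as strong as hits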
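Assay system: FITC-LANA peptide and chicken nucleosomes; input: 240 nM purified chicken nucleosomes (480 nM peptide binding sites), final; also added: 50 nM FITC-LANA1-23 probe; medium: TEN-BT buffer, pH 7.5; doses: pin-transferred compound, 100 nL; times: 10–45 min, room temperature; technique: fluorescence polarization; replication: duplicates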
* hit, by the source's call; / = no result given. A portion of the library; count on the stated rates, not on these rows.

entry	SMILES	BasE inh	LANA-nucl inh
1	Cn1ncc(SCc2ccccc2)c(Cl)c1=O	2.5	/
2	O=C(O)CCC1NC(=S)N(c2ccccc2)C1=O (stereo unspecified)	0.2	0.22
3	CCC(C)Sc1nnc(N)s1 (stereo unspecified)	-0.7	-1.3
4	COc1ccc(C(CC(=O)c2ccccc2)CC(=O)c2ccccc2)cc1	-2.6	/
5	CC1CCC(C(C)C)C(OC(=O)COC(=O)c2cc(S(=O)(=O)N3CCOCC3)ccc2O)C1 (stereo unspecified)	-3.1	/
6	C=C(C)C1CC=C(C)/C(=N/NC(=O)COc2ccc(C)cc2)C1 (stereo unspecified)	-0.9	0.33
7	COc1ccc(/C=C/C=N/n2c(SC)nnc2-c2ccccc2)cc1	-2.5	/
8	COc1cccc(C(=O)NC2=NC(CC(C)C)CC(=O)N2)c1 (stereo unspecified)	-1.3	0.064
9	COc1cccc(CNC(=O)CC2C(=O)Nc3c2c(=O)n(C)c(=O)n3Cc2ccccc2)c1 (stereo unspecified)	0.1	/
10	Cc1ccc(S(=O)(=O)N(c2ccccc2)C(F)F)cc1	2.2	-0.074
11	Cc1nc(SCCN)n[nH]1	0.3	0.18
12	CCCn1c(NCc2sccc2C)nc2ccccc21	-0.1	-0.47
13	COCc1nc(SCC(=O)OC)c(C#N)cc1C(=O)OC	-0.5	/
14	C=CCNc1oc(-c2ccc(OC)cc2)nc1C#N	4.1	-1.1
15	COc1ccccc1CC(=O)Nc1ccc(S(=O)(=O)N(C)C)cc1	0.2	-0.75
16	COc1ccc2[nH]c(O)c(N=NC(=O)OC(C)(C)C)c2c1	3.4	0.45
17	O=C1c2cccnc2C(=O)N1C1CCCCC1	0.3	-0.52
18	Cc1oc2cc(OC(=O)c3ccco3)ccc2c(=O)c1-c1nc2ccccc2n1C	-0.6	0.51
19	O=C(CC(c1ccco1)C1CCCCC1=O)c1ccccc1 (stereo unspecified)	2.0	/
20	Cc1ccc(SCC(=O)n2c3ccccc3c3ccccc32)cc1	2.6	/
21	c1csc(-c2nnc(COc3nc4cc5c(cc4nc3N3CCOCC3)OCCO5)o2)c1	-1.4	/
22	Cc1ccc2nc(-c3ccc4c(c3)NC(=O)CO4)cn2c1	-1.9	/
23	COc1ccc(-c2ccc(=O)n(CC(=O)NCC3CC3)n2)cc1OC	1.0	0.083
24	CC1CN(C2=CC(=O)CCC2)CC(C)O1 (stereo unspecified)	4.1	/
25	O=C1c2ccccc2C(=O)N1CCNCCN1C(=O)c2ccccc2C1=O	-1.3	0.32
26	CC(C(O)c1ccccc1)N(C)S(=O)(=O)c1cccs1 (stereo unspecified)	1.6	/
27	CS(=O)(=O)N1CCN(C(=O)C2c3ccccc3Oc3ccccc32)CC1	2.3	0.27
28	CC1=C(C(=O)Nc2ccc(C(=O)N3CCCCCC3)cc2)SCCO1	-0.6	0.92
29	CC1CCC(C(C)C)C(OP(N)(=O)c2ccc(N(C)C)cc2)C1 (stereo unspecified)	0.2	-1.2
30	Cn1ncc(Cl)c(Oc2ccccc2)c1=O	0.3	-0.44
31	CN(c1ccccc1)S(=O)(=O)c1cccc(C(=O)c2c(N)n(C)c(=O)[nH]c2=O)c1	1.3	/
32	CN(CC(=O)O)C1=NS(=O)(=O)c2ccccc21	-0.3	/
33	Cc1sc2nc3n(c(=O)c2c1C)CCCS3	-0.6	0.46
34	COc1cc(C(=O)Nc2nccs2)cc(OC)c1C	-0.2	/
35	CN1CCN(CCC(=O)Nc2cccc(F)c2)CC1	0.1	0.23
36	CCN(CC)c1cc(C)c2cc(NC(=O)C3CCCCC3)ccc2n1	-5.1	0.86
37	O=C(CCc1nc2cccnc2n1-c1ccccc1)Nc1cccc(-c2ccno2)c1	0.6	0.11
38	CNC(=S)N1CCc2c([nH]c3ccccc23)C1C(F)(F)F (stereo unspecified)	0.1	-1.3
39	COc1cccc(-n2cnc3scc(-c4cccs4)c3c2=O)c1	0.1	0.21
40	O=C(CN1C(=O)c2ccccc2C1=O)c1ccc(Cl)cc1	2.5	/
41	O=C(O)c1cccn2nnnc12	0.4	-2.3*
42	O=C(NNc1ncccc1-n1cccc1)c1ccco1	0.6	-0.52
43	Cc1cc(NC(=O)COCc2cc(-c3ccc(F)cc3)on2)n(-c2ccccc2)n1	-4.6	2.6
44	COC(F)(C(=O)NC12CC3CC(CC(C3)C1)C2)C(F)(F)F (stereo unspecified)	-2.5	0.064
45	O=C(CNc1ccccc1)N/N=C/c1ccc(N2CCOCC2)cc1	4.7	/
46	O=C1CC(Cc2ccccc2)N=C(NC(=O)c2ccccc2)N1 (stereo unspecified)	-4.7	1.7
47	Cc1cccc(-c2cc3nc(C)cc(NCCCn4ccnc4)n3n2)c1	0.8	-0.12
48	CSc1nn(-c2ccccc2)c(NC(=O)COc2cccc3c2OC(C)(C)C3)c1C#N	0.8	/
49	O=C(CSc1nnc(Nc2ccccc2)s1)NCC1CCCO1 (stereo unspecified)	0.0	/
50	CN(Cc1nc2cc(C(F)(F)F)ccc2c(=O)[nH]1)C1CCCCC1	1.5	/
51	Cc1cc(CN)c2[nH]c3c(c2c1)CCCC3	-1.1	-1.2
52	O=C(N=Nc1c(O)[nH]c2ccccc12)C1CC1c1ccccc1 (stereo unspecified)	3.0	0.12
53	COc1ccc(-c2ccc(-c3noc(-c4ccccc4F)n3)c(OC)n2)cc1	0.5	-0.15
54	CN(C)/C=C1\SCc2ccccc2C1=O	0.5	/
55	CS(=O)(=O)N(CC(=O)N1CCCCCC1)c1cc(Cl)cc(Cl)c1	2.1	0.22
56	CCOC(=O)Cn1c(Cl)c(/C=N/NC(=O)c2ccccc2)sc1=O	-0.6	0.59
57	CNCc1cnn(-c2ccccc2)c1	1.7	/
58	OC(COC(C(F)(F)F)C(F)(F)F)CN1CCN(Cc2ccc3c(c2)OCO3)CC1 (stereo unspecified)	-0.5	/
59	COC(=O)c1cc(OCC(=O)Nc2cccc3nsnc23)cc(C(=O)OC)c1	-1.4	/
60	CC1(C)CC(=O)C2=C(C1)Nc1ccccc1N1C(=O)c3ccccc3C21 (stereo unspecified)	0.5	0.083

Further compounds
entry	SMILES	BasE inh	LANA-nucl inh
61	O=C(CC(c1ccccc1)c1cc(Br)ccc1O)NCCN1CCOCC1 (stereo unspecified)	-2.1	-0.56
62	N#Cc1cc2c(nc1SCC(=O)N1CCCCC1)CCCC2	8.9	/
63	C=CCNc1nc(C(=O)OCC(=O)N2CC(C)OC(C)C2)cs1 (stereo unspecified)	1.4	/
64	COc1ccc(COc2ncnc3ccccc23)cc1F	2.8	/
65	O=C1CN(Cc2nc3scc(-c4cccs4)c3c(=O)[nH]2)CCN1	0.5	/
66	CCn1cc(C(=O)NC2CCCCC2)c(=O)c2ccc(C)nc21	0.2	0.059
67	CCS(=O)(=O)c1ccc(-c2cccc(NC(=O)C3CC3)c2)nn1	0.1	0.28
68	CCOc1ccc2nc(SCc3c(F)c(F)c(F)c(F)c3F)[nH]c2c1	0.7	/
69	CC1CN(c2cc(=O)n(Cc3ccc(F)cc3)c(=O)[nH]2)CC(C)O1 (stereo unspecified)	-0.3	1.8
70	CCOC(=O)N1CCC(NC(=O)c2cc3cc4ccc(C)cc4nc3o2)CC1	1.7	-0.054
71	CN(C)c1cc[n+](Cc2ccccc2)cc1	-4.6	0.93
72	COCCCNc1nc(CC(C)C)nc2c1nnn2Cc1ccccc1	-3.5	-0.43

Structures from the list above containing a Cl atom:
entry	SMILES	BasE inh	LANA-nucl inh
1	Cn1ncc(SCc2ccccc2)c(Cl)c1=O	2.5	/
30	Cn1ncc(Cl)c(Oc2ccccc2)c1=O	0.3	-0.44
40	O=C(CN1C(=O)c2ccccc2C1=O)c1ccc(Cl)cc1	2.5	/
55	CS(=O)(=O)N(CC(=O)N1CCCCCC1)c1cc(Cl)cc(Cl)c1	2.1	0.22
56	CCOC(=O)Cn1c(Cl)c(/C=N/NC(=O)c2ccccc2)sc1=O	-0.6	0.59

New compounds follow.
entry	SMILES	BasE inh	LANA-nucl inh
73	CCn1c(=N)n(CC(=O)c2ccc(C)cc2)c2ccccc21	-16	/
74	Cc1nc2nc[nH]n2c(=O)c1NC(=O)CC12CC3CC(CC(C3)C1)C2	-1.1	0.23
75	O=CN1CCCNCC1	2.5	/
76	CCn1c(O)c(/C=C2\C=Nc3ccc(Br)cc32)c(=O)[nH]c1=O	1.4	-0.33
77	COC(=O)c1c(COC(=O)c2cc(S(=O)(=O)N(C)C)ccc2N2CCOCC2)nc2ccccc2c1C	0.3	/
78	CC1=NN(C(=O)c2ccccc2Cl)C(O)(C2CCCCC2)C1 (stereo unspecified)	0.7	0.2
79	COCC(=O)N1CCN(c2cccc(Cl)c2)CC1	2.6	-0.35
80	CC1(C)C(=O)C2(C(=O)Nc3cccc(C(F)(F)F)c3)CCC1C2 (stereo unspecified)	-2.3	0.091
81	CCOC(CCn1c(SCC(=O)NC2CCCCC2)nc2ccccc2c1=O)OCC	-2.0	-0.048
82	CC(C)CC[n+]1[nH]ccc1N	0.4	/
83	Cc1ccccc1C1NC(=O)Cc2ccccc21 (stereo unspecified)	0.6	0.076
84	Cc1c(C(C)(C)C)sc(=N)n1C	-1.4	0.19

Printed as active in LANA-nucl inh, among the entries above:
| item | Structure | LANA-nucl inh |
| --- | --- | --- |
| 41 | O=C(O)c1cccn2nnnc12 | -2.3* |

(cont.)
entry	SMILES	BasE inh	LANA-nucl inh
85	CSc1sc(C(=O)NN)c2c1C1(CCC2)SCCS1	0.3	/
86	O=C1NC(=O)C(Nc2ccccc2C(=O)O)S1 (stereo unspecified)	-0.7	1.3
87	O=C(CCC(=O)N1CCN(S(=O)(=O)c2ccccc2)CC1)c1cccs1	-1.9	/
88	CCN(CC)C(=O)COc1ccc(/C(C)=N/NC(=O)c2ccccc2O)cc1	1.4	/
89	Cc1cc(C)cc(N2CC(C)(C)C2=O)c1	/	-0.62
90	COc1ccc(C)cc1S(=O)(=O)N(C)CC(=O)N1CCN(c2cccc(Cl)c2)CC1	-0.6	-0.13
91	COC(=O)[C@H](CC(N)=O)NC(C)=O	1.2	0.34
92	CCN1CC=C2C(C#N)=C(N)C(C#N)(C#N)C(c3ccc(OC)c4ccccc34)C2C1 (stereo unspecified)	-0.5	-0.78
93	O=C1CS/C(=N\N=C\c2ccccc2Cl)N1CC1CC1	1.4	0.27
94	CON(C)c1nc(Cl)nc(N(C)C)n1	-0.7	-1.4
95	O=C1c2cccnc2C(=O)N1Cc1ccc(S(=O)(=O)N2CCCN(Cc3ccc(F)cc3)C2)cc1	1.4	0.5
96	Cn1c(=O)oc2cc(Cl)c(C(=O)c3cc4c(cc3Cl)oc(=O)n4C)cc21	-1.4	2.1
97	Cc1cc2ccccc2c(=O)n1CC(=O)NCC(=O)NC1CCCCC1	-2.4	0.1
98	Cc1cc(C)nc(SCC(=O)n2c(C)c(C)c3ccccc32)n1	-5.9	0.97
99	CC1(C)CC2CC(C)(CN2C(=O)COc2ncnc3ccccc23)C1 (stereo unspecified)	2.9	/
100	CSc1c(C)c(C#N)c(=O)n(NC(=O)COc2ccc(C#N)cc2)c1C	-1.9	/
101	O=C(Nc1cccnc1)C(Cc1ccccc1)N1C(=O)C2C3C=CC(C3)C2C1=O (stereo unspecified)	2.0	-0.59
102	COc1ccc(OCCN2CCN(C(=O)c3c(C)nn(-c4ccc(F)cc4)c3C)CC2)cc1	1.7	/
103	Cc1[nH]c(=S)[nH]c(=O)c1Oc1ccc(=O)[nH]n1	1.6	-1.1
104	Cc1ccc(-n2c(C)cc(C=C3C(=O)c4ccccc4C3=O)c2C)cc1	16	/
105	Cc1ccc(S(=O)(=O)NC23CC4CC(C2)CC(C(=O)O)(C4)C3)cc1	0.3	/
106	O=C(CNCC1CCCCC1)Nc1cccc(F)c1	1.9	0.88
107	CCN(CC(O)c1cccc(O)c1)C(=S)Nc1cccnc1 (stereo unspecified)	-0.1	/
108	Cc1sc2nc(CSCC(=O)c3cc(C)n(-c4ccc(Br)cc4)c3C)[nH]c(=O)c2c1C	-8.2	/
109	CC(=O)N/N=C/c1ccccc1	3.0	0.031
110	COc1ccc(-n2ccc(O)c(Cc3ccc(Cl)cc3)c2=O)cc1	/	2
111	CCn1c(SC)nnc1C1CCCN(Cc2ccccc2)C1 (stereo unspecified)	0.0	0.66
112	O=C(CNc1ccccc1)N/N=C/c1ccccc1Cl	-0.1	-0.067
113	O=C1/C(=C/c2ccncc2)CCc2ccccc21	1.9	-0.77
114	CCOC(=O)C1CCCN(CCc2ccccc2)C1 (stereo unspecified)	-3.2	0.38
115	O=C(CCN1c2ccccc2Sc2ccccc21)OCc1nnc(-c2ccccc2)o1	1.1	/
116	NC(=S)CC(=O)NCc1ccccc1	-0.8	/
117	COc1ccc(NC(=O)CN(C)C(=O)C2CC(=O)N(c3cccc(C)c3C)C2)cc1 (stereo unspecified)	-0.7	/
118	O=C1NC(c2cc3c(cc2Br)OCO3)Oc2ccccc21 (stereo unspecified)	2.3	-0.55
119	CCSc1nnc(C2CCCN(Cc3cccnc3)C2)n1C(C)C (stereo unspecified)	1.1	-0.38

Three structures from above, arranged by number of heavy atoms, ascending.
entry	SMILES	BasE inh	LANA-nucl inh
116	NC(=S)CC(=O)NCc1ccccc1	-0.8	/
111	CCn1c(SC)nnc1C1CCCN(Cc2ccccc2)C1 (stereo unspecified)	0.0	0.66
110	COc1ccc(-n2ccc(O)c(Cc3ccc(Cl)cc3)c2=O)cc1	/	2

In the list so far, these contain a tert-butyl group:
entry	SMILES	BasE inh	LANA-nucl inh
16	COc1ccc2[nH]c(O)c(N=NC(=O)OC(C)(C)C)c2c1	3.4	0.45
84	Cc1c(C(C)(C)C)sc(=N)n1C	-1.4	0.19

From PubChem
